SARS PLP yeast: inhibitors of SARS-CoV papain-like protease in yeast. S. cerevisiae expressing SARS-CoV PLpro, growth rescue; control for the full effect not named in the record. Potency, µM (top dose mostly 32.9 µM), inactives show at the highest dose activity, positive = growth rescue. 330,000 compounds, 0.19% hits. AID 485353; also: 0% is about no effect; nearly all actives have a fitted effect of over 55% in size; growth read by luminescence after 48 h
NS1 inh: blocks influenza NS1 protein function; S. cerevisiae slowed by influenza A NS1, growth recovery by OD600; Potency, µM (series often up to 46.1 µM), for the others: top-dose activity, positive = more growth; 270,000 compounds, 0.4% hits; also: actives are rising curves; nearly all actives have a fitted effect of over 50% in size
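Read-out: OD600 growth recovery of NS1-expressing budding yeast. Cells grown overnight at 30C in -URA glucose medium, washed, resuspended and diluted 1:100 in 2% galactose assay medium, pH 6.0. Same strain lacking NS1 served as positive control.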
MARV entry inh: blocks Marburg virus binding to or entry into cells; Potency, µM (titrated, usually from 37.8 µM), without a hit: at the highest dose activity change, negative = inhibition, most hits filed as inhibitors; Marburg virus pseudotyped entry inhibition, cell reporter; control for the full effect not named in the record; about a third of the inactives were read at about 46 µM; 300,000 compounds, 1.8% hits; active = well fitted inhibition curve with a large enough effect; inconclusive = small, poorly fitted or top-dose-only effect, or effect the other way; inactive = flat fitted curve, though single readings scatter; tested in HEK293 cells; about a fifth of its hits are not listed in these tables; also: % is scaled to controls: 0 for no effect and ±100 for the full control effect; luciferase read-out
RE007 growth inh: less growth of the S. pombe RE007 Vpr strain | S. pombe RE007 Vpr strain, BacTiter-Glo ATP luminescence, 24 h; control for the full effect not named in the record | 360,000 compounds, 0.21% hits | Potency, µM (top dose mostly 92.2 µM), for the others: at the highest dose activity change, negative = less growth | AID 651644; active = well fitted falling curve with a large enough effect; inconclusive = small, poorly fitted or top-dose-only effect; inactive = no such curve, though single readings can be large or run the other way;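 also: % is scaled to controls: 0 for no effect and ±100 for the full control effect; nearly all actives have a fitted effect of over 50% in size; the assay follows cell death caused by Vpr and the record does not say whether a fall means rescue or toxicity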
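Fission yeast strain RE007, carrying one chromosomally integrated HIV-1 vpr copy, was seeded at OD 0.01 in PMG+AL medium with 23 nL pinned compound. After 24 h at 30 °C and 99% humidity, viability was read by BacTiter-Glo luminescence.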
LASV entry inh: inhibitors of Lassa virus binding or cell entry. AID 540256. 300,000 compounds, 1.2% hits. Lassa virus pseudotype entry inhibition, cell reporter; control for the full effect not named in the record. Potency, µM (highest dose often 37.9 µM), inactives show top-dose activity change, negative = inhibition, hits mostly inhibitors; active means well fitted inhibition curve with a large enough effect; inconclusive means small, poorly fitted or top-dose-only effect, or effect the other way; inactive means flat fitted curve, though single readings scatter; tested in HEK293 cells; also: % is scaled to controls: 0 for no effect and ±100 for the full control effect; nearly all actives have a fitted effect of over 50% in size; luciferase read-out
Cruzain Triton: cruzain (T. cruzi) inhibition with detergent; Potency, µM, for inactives: max response, negative = inhibition, hits mostly inhibitors; P25779; 200,000 compounds, 0.43% hits; purified cruzain, Z-FR-AMC fluorescence, 0.01% Triton; active = well fitted curve in the direction sought with a large enough effect; inconclusive = small, poorly fitted or top-dose-only effect, or another doubt; inactive = no such curve, though single readings can be large; an effect the other way counts as inactive or inconclusive;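 also: plate controls were neutral wells for no effect and buffer without enzyme for full effect; nearly all actives have a fitted effect of over 40% in size; top concentration of the series not given in the record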
Target sequence (P25779 123-467 limits assumed): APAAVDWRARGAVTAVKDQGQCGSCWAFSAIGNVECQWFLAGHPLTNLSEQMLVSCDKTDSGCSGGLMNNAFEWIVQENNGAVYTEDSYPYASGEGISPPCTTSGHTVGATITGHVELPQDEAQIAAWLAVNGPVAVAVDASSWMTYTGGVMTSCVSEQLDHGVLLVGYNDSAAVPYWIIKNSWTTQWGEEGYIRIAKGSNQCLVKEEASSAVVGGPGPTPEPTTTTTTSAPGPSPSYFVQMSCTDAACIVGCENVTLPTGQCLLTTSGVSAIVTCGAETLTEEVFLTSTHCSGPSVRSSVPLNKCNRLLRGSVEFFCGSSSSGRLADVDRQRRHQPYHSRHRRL
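Detergent-containing run (0.01% Triton X-100) in acetate buffer pH 5.5 with 5 mM DTT: enzyme at 1.5 nM final, 15 min compound preincubation at room temperature, then 2 uM Z-FR-AMC substrate. Activity taken as 60 s fluorescence increase at 360/450 nm.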
Cruzain inh noDet: blocks cruzain activity in detergent-free assay; Potency, µM, for the others: max response, negative = inhibition, hits mostly inhibitors; 200,000 compounds, 2.3% hits; purified cruzain, Z-FR-AMC fluorescence, no detergent; P25779; AID 1476; active = well fitted curve in the direction sought with a large enough effect; inconclusive = small, poorly fitted or top-dose-only effect, or another doubt; inactive = no such curve, though single readings can be large; an effect the other way counts as inactive or inconclusive;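 also: plate controls were enzyme without inhibitor for no effect and buffer without enzyme for full effect; nearly all actives have a fitted effect of over 40% in size; top concentration of the series not given in the record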
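Detergent-free condition (0.00005% Triton X-100) in acetate buffer pH 5.5 with DTT. 1.5 nM enzyme and compound were pre-mixed 15 min, then 2 uM Z-FR-AMC substrate added; reaction progress from fluorescence change between first and third reads (60 s).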
StopGo reporter: lowers the luciferase signal of an FMDV 2A StopGo reporter | human cells with a luciferase reporter of 2A StopGo recoding; control for the full effect not named in the record | 410,000 compounds, 1.2% hits | Potency, µM (top dose mostly 57.9 µM), without a hit: at the highest dose signal change, negative = less light; active = well fitted falling curve with a large enough effect; inconclusive = small, poorly fitted or top-dose-only effect; inactive = no such curve, though single readings can be large or run the other way; tested in HEK293T cells; also: % is scaled to controls: 0 for no effect and ±100 for the full control effect; nearly all actives have a fitted effect of over 45% in size; luciferase light after 4 h
* hit, by the source's call; ? = inconclusive; . = not tested or not shown; & = joins results of further samples; [ ] = remark or other dose. Unless noted, calls follow the shape of the dose curve; as a rule, active means well fitted rising curve with a large enough effect; inconclusive means small, poorly fitted or top-dose-only effect; inactive means no such curve, though single readings can be large or run the other way. Potency is read from the fitted curve at half-maximal effect.

SMILES	SARS PLP yeast	NS1 inh	MARV entry inh	RE007 growth inh	LASV entry inh	Cruzain Triton	Cruzain inh noDet	StopGo reporter
O=C(CC(Nc1cccc(Cl)c1Cl)C(=O)O)c1ccccc1 (stereo unspecified)	0%	?	.	-5%	.	.	.	58%[activator]
CCOc1ccc(OCCC(=O)OCC(=O)Nc2ccc3c(c2)OCO3)cc1	-3%	.	12%[46.1 µM]	-15%	1%	.	.	8%
CCOc1ccccc1/C=C/c1onc(C)c1S(=O)(=O)N1CCC(C(=O)N(CC)CC)CC1	0%	18%	.	-6%	?	-6.0%	?	-16%&-2%
Cc1ccc(NC(=O)Cn2nc(C)c([N+](=O)[O-])c2C)cc1Cl	0%	.	-10%	3%	11%	.	.	-23%
O=[N+]([O-])c1cnccc1Nc1ccc(F)cc1	-4%	-1%	-5%	-4%	-5%	-2.9%	-14%	-22%
CCOc1ccccc1-n1c(=S)sc2c(=O)n(-c3ccc(C)cc3)c(=S)[nH]c21	-3%	.	?	5%	?	.	.	2%
O=C(Nc1ccccc1-c1ccccc1)c1ccc(NC(=O)c2ccco2)cc1	-12%	-54%	7%	1%	-16%	-5.2%	26%	?
COc1ccc(CC(NC(=O)c2ccccc2)C(=O)NCC(=O)O)cc1 (stereo unspecified)	5%	0%	.	2%	.	-2.5%	1%	0%
COc1ccccc1Nc1cc(C)nc2nc(-c3ccccc3)nn12	.	.	.	.	-28%[46.1 µM]	-3.7%	?	-4%
CC(=O)Nc1ccc(C(=O)Nc2ccc(S(=O)(=O)N3CCCC3)cc2)cc1	16%	11%	-8%	6%	-8%	2.4%	-2%	-15%
Cc1ccc([N+](=O)[O-])cc1N(CC(=O)N1CCCCC1)S(C)(=O)=O	0%	.	-9%[46.1 µM]	8%	-1%	.	.	-10%
CC(C)(C)C1CCc2c(sc(NC(=O)c3ccccc3F)c2C(=O)NCc2ccco2)C1 (stereo unspecified)	.	.	?	.	5%[46.1 µM]	-2.5%	-9%	-2%
CC(C)[C@@H](NC(=O)C1CCC(CNC(=O)[C@H](Cc2ccccc2)NC(=O)OC(C)(C)C)CC1)C(=O)O (stereo partly specified)	0%	8%	?	8%	19%[46.1 µM]	.	.	-16%
COc1ccc(C2=C(Nc3ccc(F)cc3)c3ccccc3C2=O)cc1	-2%	4%	8%[46.1 µM]	-6%	1%	-8.3%	2%	-21%
COCCn1c(-c2ccc(-c3ccccc3Cl)o2)nc2c1c(=O)[nH]c(=O)n2CC(C)C	1%	7%	?	-1%	?	5.4%	1%	3%
COc1cccc(NC(=O)CSCc2cc(=O)c3ccc(C)c(C)c3[nH]2)c1	.	.	.	.	13%[46.1 µM]	-0.5%	-5%	8%
Cc1ccc(-c2cn3cccnc3n2)cc1NC(=O)Nc1ccc(F)cc1	.	.	?	.	7%[46.1 µM]	0.8%	0%	-11%
O=C(Nc1ccc(Br)cc1)C1CCN(C(=O)c2ccc(F)cc2)CC1	28%	-15%	-32%	-6%	-7%	-3.6%	12%	-20%
CS(=O)(=O)N(CC(=O)NCc1ccc2c(c1)OCO2)C1CCCCC1	0%	2%	-14%[46.1 µM]	-10%	1%[46.1 µM]	.	.	-1%
Cc1cc(C)nc(SCc2ccc(C(=O)NN=C3CCCC3)cc2)n1	0%	-6%	.	-4%	.	.	.	-3%
O=S(=O)(NC1CC1)c1ccc(S(=O)(=O)N2CCCC3(CCCCC3)C2)cc1	-1%	-3%	?	8%	-15%	-0.5%	?	-19%
Cc1cc(F)ccc1NC(=O)CN(C)S(=O)(=O)c1ccc(C(=O)N2CCOCC2)s1	.	.	.	.	9%[46.1 µM]	0.9%	-3%	?
CC(=O)Nc1ccc(OCC(=O)N2CCc3ccccc3C2)cc1	1%	3%	3%[46.1 µM]	-13%	?	.	.	22%
COc1cc(/C=N/NC(=O)CCc2n[nH]c(=O)[nH]c2=O)ccc1O	11%	5%	1%	0%	19%	-5.1%	-1%	-7%
COc1ccc2c(c1)[nH]c1c(=O)n(CCN(C)C)cnc12	-8%	4%	-8%	17%	?	1.4%	3%	50%[activator]
COc1ccccc1CNC(=O)CCCCn1c(=O)c2ccccc2n(Cc2c(C)cc(C)cc2C)c1=O	.	.	11%[46.1 µM]	.	-7%[46.1 µM]	-1.8%	-12%	-4%
CC(C)(C)n1cnnc1Sc1ncccc1[N+](=O)[O-]	1%	2%	.	13%	.	.	.	5%
Cn1ncc2c(NCc3ccccc3)ncnc21	4%&-1%	-17%&-6%	-14%&-14%	8%	6%	-1.6%	-11%	.
CCC(=O)Nc1ccc2c(c1)N(C(C)=O)c1ccccc1CC2	2%	3%	7%	-9%	21%	.	.	-25%
COc1cccc(CN(C)C(=O)c2cc(S(=O)(=O)NCc3ccccc3)ccc2C)c1OC	-8%	.	-7%	-9%	-28%	.	.	-10%
O=C1Cc2ccccc2C(c2ccc(Br)cc2)N1 (stereo unspecified)	-5%	-4%	-1%	-9%	-7%	4.5%	3%	?
O=C(CNC(=O)OCc1ccccc1)Nc1ccc(Br)cc1C(=O)c1ccccc1	4%	-4%	-16%	4%	-14%	-1.2%	3%	-23%
O=C(Cc1ccc(NC(=O)N2CCCCc3ccccc32)cc1)NCc1ccccc1	.	.	.	.	?	-0.9%	-8%	-20%
CCCCC(=O)Nc1ccc2oc(-c3ccncc3)nc2c1	-6%	-16%	?	14%	?	1.0%	5%	40%[activator]
CCc1ccc(C2NC(=S)NC3=C2C(=O)CC(C)(C)C3)cc1 (stereo unspecified)	-16%	3%	?	1%	1%	1.2%	-7%	-21%
CCCOc1ccc(C2C(=O)N(C3CCCCC3)CC(=O)N2CCC2=CCCCC2)cc1OC (stereo unspecified)	.	.	.	.	-2%[46.1 µM]	-0.7%	-7%	-28%
COCCn1nnnc1C(CC(C)C)N1CCN(c2cccc(OC)c2)CC1 (stereo unspecified)	-10%	-4%	-22%	12%	-2%	0.2%	7%	-7%
Cc1ccc(OCCn2c(CNc3ccccc3C)nc3ccccc32)cc1	.	.	19%[46.1 µM]	.	29%[46.1 µM]	-7.2%	2%	31%[activator]
Nn1cc(-c2ccccc2)nc1SCC(=O)Nc1ccc2c(c1)OCO2	-13%	20%	10%	9%	1%	-3.9%	-9%	23%
Cc1cc(C)c(S(=O)(=O)N2CCCc3ccccc32)c(C)c1	-2%	-64%	.	-9%	.	.	.	-19%
Cc1cc(C(=O)NCC(=O)O)c(C)o1	-7%	1%	5%	6%	11%	4.7%	-7%	.
CC(C)CCNC(=O)C(=O)Nc1cc2c3c(c1)CC(=O)N3CCC2	-2%	0%	.	6%	.	.	.	18%
CCOC(=O)CS(=O)(=O)c1ccc(C(F)(F)F)cn1	7%	19%	?	0%	6%	8.7%	10%	-1%
O=c1[nH]c2cc3c(cc2cc1C(c1nnnn1C1CCCC1)N1CCCc2ccccc21)OCCO3 (stereo unspecified)	1%	4%	?	9%	1%	3.0%	?	-8%
CC(C)(C)Nc1c([N+](=O)[O-])c(=O)sc2ccccc12	3%	.	7%[46.1 µM]	0%	-2%[46.1 µM]	.	.	-3%
Cc1nc2c(c(C)nn2-c2ccccc2)c(C)c1CCC(=O)Nc1ccc(F)cc1	.	.	-8%[46.1 µM]	.	25%[46.1 µM]	-5.4%	9%	?
COc1ccc2[nH]c3c(NCc4ccco4)ncnc3c2c1	8%	-7%	?	-5%	-11%	18µM*	?	-3%
Cc1ccc(OCc2cc(C(=O)N(C)CCc3ccccc3)no2)cc1C	-7%	-20%	.	-3%	.	.	.	55%[activator]
CCc1ccc(NC(=O)CSc2ccccn2)cc1	-1%	.	?	-15%	26%	.	.	45%[activator]
Cc1noc(C)c1CSCC(=O)N(C)CC(=O)Nc1ccc(Cl)cc1	-7%	5%	.	-8%	.	.	.	0%

More results.
SMILES	SARS PLP yeast	NS1 inh	MARV entry inh	RE007 growth inh	LASV entry inh	Cruzain Triton	Cruzain inh noDet	StopGo reporter
CCN1CCN(S(=O)(=O)c2ccc(Cl)c(C(=O)N(C)Cc3ccc(F)cc3)c2)CC1	-1%	.	3%	-16%	14%	.	.	-15%
Cc1cc(C(=O)NNC(=S)NC(=O)/C=C/c2ccccc2Cl)n[nH]1	10µM*	17%	?	1%	-13%	-4.3%	?	48%[activator]
N#Cc1ccccc1NC(=O)CSc1nnc(-c2ccc(F)cc2)n1-c1ccccc1	1%	-9%	-38%&-3%	4%	-1%	1.7%	9%	-7%
Cc1c(S(=O)(=O)N2CCc3ccccc3C2)c(=O)n(C)c(=O)n1C	0%	-2%	.	-9%	.	8.5%	7%	-2%
COc1cc(OC)cc(C(=O)NC(=S)Nc2nnn(C)n2)c1	2%	-1%	10%	-6%	11%	.	.	-9%
COc1cc(C#N)ccc1OCC(=O)N1CCc2ccccc2C1	1%	8%	0%[46.1 µM]	21%	-3%	.	.	-18%
CCCCC(=O)NCCc1ccc(OC)cc1	2%	3%	1%	-7%	1%	8.1%	-4%	-3%
CCOC(=O)c1c(C)[nH]c(C(=O)COC(=O)CN2C(=O)C3CCCCC3C2=O)c1C (stereo unspecified)	-2%	-4%	9%	-10%	-15%	-9.4%	24%	?
Cc1cc(=O)n(Cc2ccc(F)cc2Cl)c2c1c(C)nn2-c1ccccc1	.	.	.	.	-12%[46.1 µM]	-2.9%	-4%	18%
O/N=C/c1cn(-c2ccccc2)nc1-c1ccc2c(c1)OCCO2	-25%	-32%	-24%	-1%	-1%	-14%	-4%	20%
COc1ccc(CNC(=O)C2CCN(S(=O)(=O)c3ccc4c(c3)CC(C)N4C(=O)C3CC3)CC2)cc1 (stereo unspecified)	-4%	2%	2%[46.1 µM]	14%	?	.	.	-27%
COc1ccc(-c2nn(-c3ccccc3)cc2/C=N/n2cnnc2)cc1OC	0%	-7%	3%	7%	1%	-7.7%	?	-18%
CCOc1ccc(-c2csc(N)c2C(=O)OC)cc1	-13%	0%	-11%	-8%	4%	-4.9%	-7%	-18%
COc1cc(SC)ccc1C(=O)Nc1cccc(C)n1	14%	-12%	10µM*	-13%	8.9µM*	.	.	-27%
CCCN(Cc1nnc(-c2ccccc2Cl)o1)C(=O)COc1ccc(Cl)cc1	-7%	.	?	17%	-2%	.	.	-4%

Bioassay records: PubChem, National Center for Advancing Translational Sciences (NCATS)
